Cruzain inh Det: qHTS Assay for Promiscuous and Specific Inhibitors of Cruzain (with detergent) | AID 1478, 2009 | 0.43% of 200,000 active | Potency, µM, for the others: max response, negative = inhibition, hits mostly inhibitors | purified cruzain, Z-FR-AMC fluorescence, 0.01% Triton;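 further: plate controls were neutral wells for no effect and buffer without enzyme for full effect; nearly all actives have a fitted effect of over 40% in size; top concentration of the series not given in the record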
Target sequence (P25779 123-467 limits assumed): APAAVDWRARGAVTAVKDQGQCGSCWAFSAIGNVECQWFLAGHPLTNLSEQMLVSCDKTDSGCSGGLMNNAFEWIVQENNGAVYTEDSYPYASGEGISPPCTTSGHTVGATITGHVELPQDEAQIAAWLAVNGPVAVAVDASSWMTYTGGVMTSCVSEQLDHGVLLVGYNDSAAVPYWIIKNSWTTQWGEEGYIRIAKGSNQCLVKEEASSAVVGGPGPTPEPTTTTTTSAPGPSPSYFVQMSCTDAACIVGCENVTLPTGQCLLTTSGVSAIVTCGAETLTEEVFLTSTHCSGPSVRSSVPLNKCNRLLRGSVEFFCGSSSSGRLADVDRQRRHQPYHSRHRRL
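Detergent-containing run (0.01% Triton X-100) in acetate buffer pH 5.5 with 5 mM DTT: enzyme at 1.5 nM final, 15 min compound preincubation at room temperature, then 2 uM Z-FR-AMC substrate. Activity taken as 60 s fluorescence increase at 360/450 nm.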
Lassa entry inh: qHTS for Inhibitors of binding or entry into cells for Lassa Virus | Potency, µM (highest dose often 37.9 µM), for inactives: at the highest dose activity change, negative = inhibition, most hits filed as inhibitors | 1.2% of 300,000 active | Lassa virus pseudotype entry inhibition, cell reporter; control for the full effect not named in the record | AID 540256, 2011; active means well fitted inhibition curve with a large enough effect; inconclusive means small, poorly fitted or top-dose-only effect, or effect the other way; inactive means flat fitted curve, though single readings scatter; tested in HEK293 cells; further: on the % scale 0 is the no-effect control and ±100 the full control effect; nearly all actives have a fitted effect of over 50% in size; luciferase read-out
SARS PLP yeast: qHTS of Yeast-based Assay for SARS-CoV PLP; S. cerevisiae expressing SARS-CoV PLpro, growth rescue; control for the full effect not named in the record; 0.19% of 330,000 active; AID 485353, 2010; Potency, µM (doses to about 32.9 µM), for inactives: at the top dose activity, positive = growth rescue; active means well fitted rising curve with a large enough effect; inconclusive means small, poorly fitted or top-dose-only effect; inactive means no such curve, though single readings can be large or run the other way; further: 0% is about no effect; nearly all actives have a fitted effect of over 55% in size; growth read by luminescence after 48 h
RE007 growth inh: qHTS Assay for Inhibitors of the HIV-1 protein Vpr. 0.21% of 360,000 active. AID 651644, 2012. Potency, µM (top dose mostly 92.2 µM), for the others: at the highest dose activity change, negative = less growth. S. pombe RE007 Vpr strain, BacTiter-Glo ATP luminescence, 24 h; control for the full effect not named in the record; active = well fitted falling curve with a large enough effect; inconclusive = small, poorly fitted or top-dose-only effect; inactive = no such curve, though single readings can be large or run the other way;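 further: on the % scale 0 is the no-effect control and ±100 the full control effect; nearly all actives have a fitted effect of over 50% in size; the assay follows cell death caused by Vpr and the record does not say whether a fall means rescue or toxicity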
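Fission yeast RE007 carrying one integrated HIV-1 vpr copy, seeded at OD 0.01 in PMG+AL medium with 23 nL pinned compound. Grown 24 h at 30 degrees; viability read by BacTiter-Glo luminescence after 5 min.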
2A StopGo: High Throughput Screening for Foot and Mouth Disease Virus Antivirals. human cells with a luciferase reporter of 2A StopGo recoding; control for the full effect not named in the record. Potency, µM (titrated, usually from 57.9 µM), for the others: at the top dose signal change, negative = less light. 1.2% of 410,000 active. AID 1159524, 2015; active = well fitted falling curve with a large enough effect; inconclusive = small, poorly fitted or top-dose-only effect; inactive = no such curve, though single readings can be large or run the other way; tested in HEK293T cells; further: on the % scale 0 is the no-effect control and ±100 the full control effect; nearly all actives have a fitted effect of over 45% in size; luciferase light after 4 h
Cruzain inh noDet: qHTS Assay for Promiscuous and Specific Inhibitors of Cruzain (without detergent). Cruzipain (Trypanosoma cruzi), P25779. purified cruzain, Z-FR-AMC fluorescence, no detergent. Potency, µM, for inactives: max response, negative = inhibition, most hits filed as inhibitors. 2.3% of 200,000 active;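 further: plate controls were enzyme without inhibitor for no effect and buffer without enzyme for full effect; nearly all actives have a fitted effect of over 40% in size; top concentration of the series not given in the record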
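Detergent-free condition (0.00005% Triton X-100) in acetate buffer pH 5.5 with DTT. 1.5 nM enzyme and compound were pre-mixed 15 min, then 2 uM Z-FR-AMC substrate added; reaction progress from fluorescence change between first and third reads (60 s).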
NS1 inh: qHTS Assay for Inhibitors of Influenza NS1 Protein Function | S. cerevisiae slowed by influenza A NS1, growth recovery by OD600 | Potency, µM (top dose mostly 46.1 µM), without a hit: at the highest dose activity, positive = more growth | 0.4% of 270,000 active | AID 2326, 2010; active means well fitted rising curve with a large enough effect; inconclusive means small, poorly fitted or top-dose-only effect; inactive means no such curve, though single readings can be large or run the other way; further: nearly all actives have a fitted effect of over 50% in size
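OD600 was taken as the measure of yeast growth restored by compound in an NS1-expressing S. cerevisiae strain. Cells had been washed out of glucose medium and diluted 1:100 into galactose -URA medium, pH 6.0.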
MARV entry inh: qHTS for inhibitors of binding or entry into cells for Marburg Virus. Marburg virus pseudotyped entry inhibition, cell reporter; control for the full effect not named in the record; about a third of the inactives were read at about 46 µM. Potency, µM (titrated, usually from 37.8 µM), for the others: top-dose activity change, negative = inhibition, usual class: inhibitors. 1.8% of 300,000 active; active = well fitted inhibition curve with a large enough effect; inconclusive = small, poorly fitted or top-dose-only effect, or effect the other way; inactive = flat fitted curve, though single readings scatter; tested in HEK293 cells; about a fifth of its hits are not listed in these tables; further: on the % scale 0 is the no-effect control and ±100 the full control effect; luciferase read-out
The depositor's hits bear a star; ? = inconclusive; · = not tested or not shown; & = joins results of further samples; [ ] = dose if it differs, or a comment. Unless noted, the call rests on the fitted dose curve; in most records, active means well fitted curve in the direction sought with a large enough effect; inconclusive means small, poorly fitted or top-dose-only effect, or another doubt; inactive means no such curve, though single readings can be large; an effect the other way counts as inactive or inconclusive. Potency means the concentration at half of the fitted maximal effect. Not a hit list. Share with any hit: about 4.7%.

SMILES,Cruzain inh Det,Lassa entry inh,SARS PLP yeast,RE007 growth inh,2A StopGo,Cruzain inh noDet,NS1 inh,MARV entry inh
Cn1c(NCCCN2CCOCC2)nc2c1c(=O)n(Cc1ccc(Cl)cc1Cl)c(=O)n2C,6.3%,11%,4%,22%,?,4%,5%,?
Cc1c(Cl)cnc(NC(=O)COC(=O)c2cccc(S(=O)(=O)N3CCc4ccccc4C3)c2)c1Cl,-4.3%,1%,16%,-9%,-19%,?,10%,-13%
CC(=O)Nc1ccc(NC(=O)[C@@H](NC(=O)c2cccc(C)c2)C(C)C)cc1,·,11%,-1%,11%,-2%,·,3%,?
Cc1cc([N+](=O)[O-])nn1CCC(=O)Nc1nccs1,·,20%,-1%,-4%,-9%,·,5%,-10%[46.1 µM]
COc1cc(S(=O)(=O)N2CCC(c3nc4ccccc4s3)CC2)ccc1S(=O)(=O)NC1CCCC1,-1.2%,?,1%,-3%,·,?,3%,?
COc1cccc(NC(=O)Cn2c(SCC(=O)N3CCOCC3)nc3ccccc32)c1,2.4%,24%,6%,-1%,13%,8%,-3%,2%
CCOC(=O)C(NC(=O)c1ccccc1)=C1C=C(C)OC(C)=C1,0.2%,-1%,2%,0%,-20%,-16%,16%,?
Cc1ccc(-c2csc(N3CCN(c4ccc5nc(-c6ccncc6)n(CCN6CCCCC6)c5c4)CC3)n2)cc1,·,·,-9%,-9%,-22%,·,8%,·
CCOC(=O)C1(S(=O)(=O)c2ccc(Cl)cc2)CCN(Cc2ccccc2)CC1,3.6%,?,-2%,-18%,-29%,-6%,0%,-25%
N#CCc1ccc(Oc2ncccn2)cc1,·,·,0%,1%,-12%,·,8%,·
CCc1ccccc1NC(=O)CN1C(=O)COc2ccc(S(=O)(=O)N3CCCCCC3)cc21,2.1%,4%[46.1 µM],·,·,-9%,-6%,·,·
O=S(=O)(NC1CCCCC1NCc1ccco1)c1ccc(Cl)cc1 (configuration not stated),6.0%,3%,4%,-1%,·,-5%,2%,?
CC(C)(C)OC(=O)NCCC(=O)N/N=C/c1ccc2nccnc2c1,·,12%,0%,-11%,-12%,·,1%,-11%[46.1 µM]
Cn1c(/C(C#N)=C2/CCCCCN2)nc2ccccc21,0.1%,-15%,-3%,-21%,1%,-12%,-53%,7%
O=C(O)/C(=C\c1ccco1)NC(=O)c1ccco1,·,·,-1%,29%,-2%,·,28%,·
Cn1c(=O)[nH]c(=O)c2c1nc(N1CCOCC1)n2CCc1ccccc1,·,-5%,0%,13%,-13%,·,-1%,-7%
COc1ccc(C(NC(=O)c2ccccc2F)NC(=O)c2ccccc2F)cc1,-0.6%,?,1%,-1%,3%,?,7%,14%
COc1ccc2c(c1)-c1c(sn(-c3ccc(OC)c(OC)c3)c1=S)C(C)(C)N2,2.7%,?,-3%,0%,-27%,-5%,-13%,?
CCN1CCN(C(=O)C2CCN(S(=O)(=O)c3ccc4c(c3)NC(=O)C(C)S4)CC2)CC1 (configuration not stated),·,14%[46.1 µM],2%,17%,-7%,·,-1%,?
COc1ccccc1-n1c(=S)[nH]c2c(sc(=S)n2-c2ccccc2)c1=O,·,8%[46.1 µM],0%,-8%,0%,·,·,?
N#Cc1ccc(OCC(O)CN2CCN(c3ncc(C(F)(F)F)cc3Cl)CC2)cc1 (configuration not stated),·,?,-14%,-6%,-29%,·,-18%,?
Cc1cc(Cl)ccc1OCC(=O)NC(=S)Nc1ccccc1N1CCOCC1,2.2%,?,-4%,-5%,10%,?,10%,-1%
COc1ccc(NC(=O)CSc2nnc(Cn3c(=O)sc4ccccc43)n2C)cc1,-2.7%,·,17%,2%,-9%,-9%,-1%,·
CCc1ccc(NC(=O)C2CCN(S(=O)(=O)c3cccs3)CC2)cc1,·,?,1%,10%,?,·,-18%,-9%[46.1 µM]
COCCCNC(=O)c1ccc2c(=O)n(Cc3ccccc3OC)c(=S)[nH]c2c1,·,·,2%,2%,?,·,-3%,·
COc1ccccc1/C=C/C=N/NC(=O)c1ccncc1,-10%,1%[46.1 µM],9%,4%,0%,1%,2%,?
CCOc1ccc(NC(=O)CSC2=NN3CCCC(=O)N=C3S2)cc1,·,·,8%,17%,12%,·,22%,·
CC(=O)N(c1ccccc1)c1nc(/C=C/C(=O)O)cs1,·,?,-2%,0%,-22%,·,8%,-4%[46.1 µM]
Cc1ccc(-n2c(O)c(C=NCc3cccnc3)c(=O)[nH]c2=O)cc1C,-2.3%,10%,-15%,-8%,0%,7%,-3%,28%
Cc1nn(-c2ccccc2)c2c1C(c1cccc([N+](=O)[O-])c1)N(c1ccccc1)C(=O)N2 (configuration not stated),-2.7%,?,3%,29%,-24%,-29%,12%,7%
CCc1c(C)nc(N)n2c(SCC(=O)Nc3ccccc3OC)nnc12,2.1%,-13%,-1%,11%,9%,2%,5%,11%
C=CCN1CC(C)/C(=N\O)CC1C (configuration not stated),·,24%,2%,0%,-9%,·,-2%,?
CCOc1ncccc1C(=O)N1CCN(S(=O)(=O)c2ccc3ccccc3c2)CC1,·,·,-9%,17%,-8%,·,-73%,·
Cn1cccc1C(=O)OCc1cc(Cl)cc2c1OCOC2,-3.2%,29%,-16%,-22%,50%[activator],-11%,-12%,?
O=C(c1cc(O)c(O)c([N+](=O)[O-])c1)c1ccccc1F,-12%,-18%,·,11%[18.4 µM],?,-15%,3%,3%&3%&3%&6%&3%
O=C(Nc1nnc(COc2ccccc2F)s1)Nc1ccccc1F,·,?,0%,12%,-9%,·,3%,?
Cc1sc2ncnc(N3CCC(C(=O)Nc4nnc(CC(C)C)s4)CC3)c2c1C,·,27%,1%,16%,-15%,·,·,-11%[46.1 µM]
COc1ccc([C@@H]2CC(=O)c3c(O)cc(O[C@@H]4O[C@H](CO[C@@H]5O[C@@H](C)[C@H](O)[C@@H](O)[C@H]5O)[C@@H](O)[C@H](O)[C@H]4O)cc3O2)cc1O,·,·,8%,1%[18.4 µM],-27%,·,-9%,·
CCCCn1c(-c2csc3ccccc23)n[nH]c1=S,-3.1%,9%,?,5%,-4%,-7%,1%,18%
Cc1noc(C)c1C(=O)NCc1ccco1,2.8%,-3%,2%,6%,13%,0%,5%,3%
CS(=O)(=O)N1CCc2cc(NC(=O)c3ccc(Cl)cc3Cl)ccc21,·,?,0%,-2%,-6%,·,·,?
O=C(CCl)NCCN1C(=O)S/C(=C\c2cccnc2)C1=O,·,?,-1%,-10%,-27%,·,-3%,?
Oc1cccc2c(NC(=S)Nc3ccc(SC(F)F)cc3)cccc12,-15%,-12%,-31%,-14%,13µM*,-17%,-29%,-30%
COc1ccc(CCNC(=O)c2cccc3ccccc23)cc1OC,·,·,3%,-4%,-6%,·,10%,·
COc1ccc(C2C(C(=O)c3ccc(C)o3)=C(O)C(=O)N2CC2CCCO2)cc1OC (configuration not stated),·,·,-4%,-6%,2%,·,16%,·
Cc1cc(C)nc(SCc2ccc(C(=O)N/N=C/c3ccc(C(=O)O)cc3)cc2)n1,·,9%,-5%,9%,-4%,·,13%,8%[46.1 µM]
CCOc1ccccc1CNC(=O)CCCN1C(=O)COc2ccc(C)cc21,-5.0%,-6%[46.1 µM],·,·,-21%,15%,·,13%[46.1 µM]
Cc1ccc(NC(=O)CSCC(=O)OC(C)C(=O)Nc2ccccc2C)cc1 (configuration not stated),·,-1%,-4%,14%,-1%,·,·,25%
COc1ccc(Nc2cc(C)nc3ncnn23)cc1Cl,·,13%,-8%,12%,1%,·,2%,?
CC(NS(=O)(=O)c1ccc([N+](=O)[O-])cc1)C(=O)NN (configuration not stated),·,4%,1%,28%,-12%,·,·,8%
CCOc1cc(/C=N/NC(=O)CN2CCCCC2)ccc1O,·,22%,-3%,3%,-10%,·,9%,-3%
S=P(N1CCOCC1)(N1CC1)N1CC1,·,-25%[46.1 µM],·,-12%,-14%,·,·,?
Cc1cc(NS(=O)(=O)c2ccc(NC(=O)Cc3cccs3)cc2)no1,-0.3%,-11%,-2%,-3%,-12%,2%,-4%,1%
COc1ccc(C(=O)C2CCCN(C(=O)c3cccnc3OC)C2)cc1F (configuration not stated),·,-14%,0%,3%,2%,·,0%,6%[46.1 µM]
Cc1ccc(C)c(NC(=O)c2sc(Cl)nc2-c2ccccc2)c1,-0.8%,1%,-6%,-27%,-29%,-7%,1%,1%
CCN(CC)S(=O)(=O)c1ccc(C(=O)NC(C)(C)C)cc1,·,0%[46.1 µM],-4%,23%,-9%,·,·,?
Cc1cc(F)ccc1Nc1nc2ccc(Cl)cc2n2cnnc12,-2.3%,6%[46.1 µM],·,·,-17%,14%,·,1%[46.1 µM]
CN1/C(=C/C=C(C#N)C#N)C(C)(C)c2ccccc21,·,1%[46.1 µM],0%,-5%,-18%,·,-5%,-1%[46.1 µM]
O=S(=O)(Cc1cc(-c2ccc(Cl)cc2)no1)c1ccccc1,-4.9%,-7%,1%,-18%,7%,-10%,14%,-13%[46.1 µM]
Cc1nccn1CC1CCc2c(c3ccccc3n2C)C1=O (configuration not stated),·,·,-2%,17%&-9%[18.4 µM],-9%&-12%,·,-5%,·
CC(C)(C)NC(=O)Nc1ccccc1C(N)=O,-0.5%,17%,2%,1%,·,-2%,-3%,19%

Source: PubChem (National Center for Advancing Translational Sciences (NCATS))
